# Compound activity deposited in PubChem by National Center for Advancing Translational Sciences (NCATS).
# 2A firefly = Primary qHTS Assay for Foot and Mouth Disease Virus Antivirals against NCGC Sytravon and CBC Compound Libraries: Firefly Luciferase Signal. HEK cells with a luciferase reporter of 2A StopGo recoding. Potency, µM (top dose mostly 57.5 µM), inactives show at the top dose signal change, negative = less light. 0.23% of 120,000 active; active = well fitted falling curve with a large enough effect; inconclusive = small, poorly fitted or top-dose-only effect; inactive = no such curve, though single readings can be large or run the other way; further: nearly all actives have a fitted effect of over 60% in size; overnight with compound
# StopGo RLuc = Primary qHTS Assay for Foot and Mouth Disease Virus Antivirals against NCGC Sytravon and CBC Compound Libraries: Renilla Luciferase Signal | HEK cells with a luciferase reporter of 2A StopGo recoding | Potency, µM (highest dose often 57.5 µM), without a hit: at the top dose signal change, negative = less light | 0.32% of 120,000 active | AID 1745857, 2022; active means well fitted falling curve with a large enough effect; inconclusive means small, poorly fitted or top-dose-only effect; inactive means no such curve, though single readings can be large or run the other way; further: nearly all actives have a fitted effect of over 55% in size; overnight with compound
# The depositor's hits bear a star; ? = inconclusive; & = joins results of further samples; [ ] = remark or other dose. On the % scale 0 is the no-effect control and ±100 the full control effect; potency means the concentration at half of the fitted maximal effect.
SMILES,2A firefly,StopGo RLuc
CCOc1ccc(OCC)c(NC(=O)CN(c2ccc(C)cc2)S(=O)(=O)c2c(C)n[nH]c2C)c1,-22%,-1%
CCSc1ncc(Cl)c(C(=O)Nc2sc3c(c2C(=O)NCCCOC)CCCC3)n1,-16%,-5%
CCOC(=O)Cn1c(=O)oc2cc(S(=O)(=O)Nc3ccccc3F)ccc21,0%,1%
CCOc1ccc(CNC(=O)c2ccc(Sc3ccc(C)cc3)c(N)c2)cc1OC,?,?
O=C(Nc1cccc(F)c1)C1CCN(C(=O)N2CCOc3ccccc32)CC1,-10%,-4%
O=C(CN1CCN(Cc2cccc(Cl)c2)C1=O)NCc1ccc(F)cc1,-15%,26%
Cn1ccnc1C(NC(=O)COc1ccccc1-c1ccccc1)c1ccc(F)cc1 (centres undefined),-14%,-1%
Cc1ccc(C)c(NC(=O)Cn2c(-c3nonc3N)nc3ccccc32)c1,12%&-11%,-2%&-2%
COc1ccc(NC(=O)CC2C(=O)NCCN2C(=O)CN2CCN(c3ncccn3)CC2)cc1 (centres undefined),-7%,-6%
COc1ccccc1CNC(=O)c1sc(NC2CCCC2)nc1C,6%,-4%
CC(C)N(Cc1cccc(Cl)c1)S(=O)(=O)c1cnn(C)c1,2%,19%
O=C(O)CC(NS(=O)(=O)c1ccc(Br)s1)c1ccccc1 (centres undefined),-6%,-9%
Cn1c(=O)c2c(SCC(=O)NCc3ccc(F)cc3)nc(-c3ccccc3Cl)nc2n(C)c1=O,-8%,-11%
Cc1cc(C(=O)NCC(=O)NC2CC2)c2ccccc2n1,8%,-2%
COc1ccc(C(=O)N(Cc2cc3cccc(C)c3[nH]c2=O)c2ccccc2)cc1,11%,20%
CN(Cc1ccco1)C(=O)CSc1nc(-c2cccs2)nc2ccccc12,20%,30%[activator]
Cc1cc(C)n2c(Nc3ccccc3)c(-c3ccccc3)nc2n1,6%,5%
Cc1ccccc1OCCOC(=O)CCC(=O)c1ccc(F)cc1,-15%,-9%[1.06 µM]
Cc1nc2nc(C)c(NS(=O)(=O)c3ccc(F)cc3)c(=O)n2[nH]1,-1%,8%
CN(Cc1ccccc1)S(=O)(=O)c1ccc(NC(=O)c2cc(=O)c3ccccc3o2)cc1,4%&0%,29%&12%
N#C/C(=C\c1ccc(Cl)cc1)c1nc(-c2cc3ccccc3oc2=O)cs1,-4%,-11%
Cc1cc2c(cc1S(=O)(=O)Nc1cccc(C(F)(F)F)c1)OCCN2C,0%,-8%
C[C@@H]1C[C@@H]([C@H](O)CC2CC(=O)NC(=O)C2)C(=O)[C@@H](C)C1,-62%[11.5 µM],?
Cc1cc(C)c(S(=O)(=O)NCCC(=O)Nc2nccs2)c(C)c1,19%,225%[activator]
COc1ccc(Nc2ncc3c(n2)CCN(Cc2sccc2C)C3)c(OC)c1,22%,-8%
CC1CCCN(C(=O)CSc2nnc(-c3cccs3)n2N)C1 (centres undefined),6%,-6%
Cc1ccc2nc(NC(=O)c3cc(=O)c4ccccc4o3)sc2c1,23%,5%
COc1cc(NC(=O)NC(C)c2c(-n3cccc3)sc3c2CCN(C)C3)cc(OC)c1 (centres undefined),-8%,-2%
Cc1ccoc1C(=O)NCc1ccc(COCC(F)(F)F)cc1,0%,4%
Cc1cccc(N2CCN(C(=O)Nc3ccc(F)cc3)CC2C)c1 (centres undefined),5%,-2%
Cc1nc(-c2ccc(C)c(S(=O)(=O)N3CCC(C(=O)NCc4ccc(Cl)cc4)CC3)c2)no1,9%,12%
O=C(CCNC(=O)C1CCCC1)NCCc1ccsc1,0%,-2%
Cc1ccc(NC(=O)CSc2ncnc3ccccc23)cc1C,37%[activator],-11%
Cc1cc(N2CCCC2)nc(Nc2ccc(NC(=O)Nc3ccc(Cl)cc3)cc2)n1,48%[activator],13%
CCN(Cc1ccccc1)C(=O)Cn1c(=O)n(-c2cccc(C)c2)c(=O)c2c1c1cc(C)ccc1n2C,25%,16%
CCc1ccc(-c2nn(CC(=O)NC3CCCC3)c3c2cnc2ccc(F)cc23)cc1,98%[activator],-10%
COc1ccc(-c2nc3c(c(SC(C)C(=O)Nc4ccccc4OC)n2)COC(C)(C)C3)cc1 (centres undefined),8%,-3%
O=C(c1occc1-c1ccccc1)N1CCN(S(=O)(=O)c2c(F)cccc2F)CC1,-22%,-13%
COc1cc(C2c3c(-c4ccccc4O)n[nH]c3C(=O)N2CCO)cc(OC)c1OC (centres undefined),25%,16%
CC(C)C(=O)NCCNC(=O)C1CC=CCC1 (centres undefined),1%,-1%
COc1ccc(-c2nc(N(C)Cc3ccco3)c3ccccc3n2)cc1,36%[activator],-9%
COc1cccc(-c2n[nH]c(=O)c3c2C(c2cccc(F)c2)n2nnnc2N3)c1 (centres undefined),53%[activator],39%[activator]
COc1ccc(N2C(=O)CSC23C(=O)N(C)c2ccccc23)cc1Cl (centres undefined),23%,-9%
COc1ccc(-n2c(SCC(=O)NCc3ccc(Cl)cc3)nc3ccsc3c2=O)cc1,10%,-3%
COc1ccc(NC(=O)COC(=O)c2ccc(C)s2)cc1OC,17%,3%

# In a second layout: 26 of the compounds above
# Every second line gives: 2A firefly, StopGo RLuc
> CN(Cc1ccccc1)S(=O)(=O)c1ccc(NC(=O)c2cc(=O)c3ccccc3o2)cc1
→ 4%&0%, 29%&12%
> N#C/C(=C\c1ccc(Cl)cc1)c1nc(-c2cc3ccccc3oc2=O)cs1
→ -4%, -11%
> Cc1cc2c(cc1S(=O)(=O)Nc1cccc(C(F)(F)F)c1)OCCN2C
→ 0%, -8%
> C[C@@H]1C[C@@H]([C@H](O)CC2CC(=O)NC(=O)C2)C(=O)[C@@H](C)C1
→ -62%[11.5 µM], ?
> Cc1cc(C)c(S(=O)(=O)NCCC(=O)Nc2nccs2)c(C)c1
→ 19%, 225%[activator]
> COc1ccc(Nc2ncc3c(n2)CCN(Cc2sccc2C)C3)c(OC)c1
→ 22%, -8%
> CC1CCCN(C(=O)CSc2nnc(-c3cccs3)n2N)C1 (centres undefined)
→ 6%, -6%
> Cc1ccc2nc(NC(=O)c3cc(=O)c4ccccc4o3)sc2c1
→ 23%, 5%
> COc1cc(NC(=O)NC(C)c2c(-n3cccc3)sc3c2CCN(C)C3)cc(OC)c1 (centres undefined)
→ -8%, -2%
> Cc1ccoc1C(=O)NCc1ccc(COCC(F)(F)F)cc1
→ 0%, 4%
> Cc1cccc(N2CCN(C(=O)Nc3ccc(F)cc3)CC2C)c1 (centres undefined)
→ 5%, -2%
> Cc1nc(-c2ccc(C)c(S(=O)(=O)N3CCC(C(=O)NCc4ccc(Cl)cc4)CC3)c2)no1
→ 9%, 12%
> O=C(CCNC(=O)C1CCCC1)NCCc1ccsc1
→ 0%, -2%
> Cc1ccc(NC(=O)CSc2ncnc3ccccc23)cc1C
→ 37%[activator], -11%
> Cc1cc(N2CCCC2)nc(Nc2ccc(NC(=O)Nc3ccc(Cl)cc3)cc2)n1
→ 48%[activator], 13%
> CCN(Cc1ccccc1)C(=O)Cn1c(=O)n(-c2cccc(C)c2)c(=O)c2c1c1cc(C)ccc1n2C
→ 25%, 16%
> CCc1ccc(-c2nn(CC(=O)NC3CCCC3)c3c2cnc2ccc(F)cc23)cc1
→ 98%[activator], -10%
> COc1ccc(-c2nc3c(c(SC(C)C(=O)Nc4ccccc4OC)n2)COC(C)(C)C3)cc1 (centres undefined)
→ 8%, -3%
> O=C(c1occc1-c1ccccc1)N1CCN(S(=O)(=O)c2c(F)cccc2F)CC1
→ -22%, -13%
> COc1cc(C2c3c(-c4ccccc4O)n[nH]c3C(=O)N2CCO)cc(OC)c1OC (centres undefined)
→ 25%, 16%
> CC(C)C(=O)NCCNC(=O)C1CC=CCC1 (centres undefined)
→ 1%, -1%
> COc1ccc(-c2nc(N(C)Cc3ccco3)c3ccccc3n2)cc1
→ 36%[activator], -9%
> COc1cccc(-c2n[nH]c(=O)c3c2C(c2cccc(F)c2)n2nnnc2N3)c1 (centres undefined)
→ 53%[activator], 39%[activator]
> COc1ccc(N2C(=O)CSC23C(=O)N(C)c2ccccc23)cc1Cl (centres undefined)
→ 23%, -9%
> COc1ccc(-n2c(SCC(=O)NCc3ccc(Cl)cc3)nc3ccsc3c2=O)cc1
→ 10%, -3%
> COc1ccc(NC(=O)COC(=O)c2ccc(C)s2)cc1OC
→ 17%, 3%

# Carrying on.
SMILES,2A firefly,StopGo RLuc
CC(CCc1ccccc1)NC(=O)C1(CC(=O)NC(C)(C)C)CCCC1 (centres undefined),-18%,13%
Cc1cccc(C(=O)NCC(O)c2ccccc2)c1 (centres undefined),177%[activator],-7%
O=C(O)COc1c(Br)cc(/C=C2/NC(=O)NC2=O)cc1Br,-1%,-6%
Cc1cccc(-n2c(-c3ccco3)nc3c(cnn3-c3ccccc3C)c2=O)c1,50%[activator],5%
Cc1ccc(-n2cc(C(=O)N3CCC(NC(=O)OC(C)(C)C)CC3)nn2)cc1C,15%,-6%
C=CCOc1ccc(CNCCc2c[nH]c3ccccc23)cc1,-1%,-6%
CN(CCO)C(=O)c1cc(-c2ccc(Cl)cc2)nc2ccccc12,48%[activator],65%[activator]
C[C@]12CCC(=O)C(O)=C1CC[C@@H]1[C@@H]2CC[C@]2(C)C(=O)CC[C@@H]12,-10%,-7%
CCCC(C(=O)NCc1cccc(Cl)c1)N1Cc2ccccc2C1=O (centres undefined),-16%,62%[activator]
COc1ccc(N/C=C/C(=O)c2ccc(Br)cc2)cc1,241%[activator],14%
Cc1cccc(C)c1Nc1c(-c2ccccn2)nc2ccc(Cl)cn12,7%,-5%
CCCN1CCN(C(=O)Cn2ncc3c4ccccc4n(Cc4cccc(Cl)c4)c3c2=O)CC1,-4%,-13%
Cc1cccc(C(=O)NCC(c2ccc3c(c2)OCO3)N2CCOCC2)c1 (centres undefined),-4%,-1%
CC(C)=CC1C(C(=O)Nc2cccc(OC(F)F)c2C)C1(C)C (centres undefined),-7%,15%
CCc1ccccc1NC(=O)CCC(=O)N1CC(C)Oc2ccc(C)cc21 (centres undefined),-19%,1%

# Quoted at random: two compounds from above, in no set order.
SMILES,2A firefly,StopGo RLuc
COc1ccc(N/C=C/C(=O)c2ccc(Br)cc2)cc1,241%[activator],14%
Cc1cccc(C(=O)NCC(O)c2ccccc2)c1 (centres undefined),177%[activator],-7%

# (continued)
SMILES,2A firefly,StopGo RLuc
Cn1cc(S(=O)(=O)N2CCCCCC2)cc1C(=O)Nc1ccc(Cl)c(C(F)(F)F)c1,-7%,-5%
Cc1ccc(C(=O)CSc2nc3ccccc3o2)c(C)c1,190%[activator],7%
CCCCn1c(=O)[nH]c(=O)c2c1nc(CSc1nnnn1C1CC1)n2C,11%,0%
O=C(NCCc1ccc(Cl)cc1)c1ccc2c(c1)N(Cc1ccc(F)cc1Cl)C(=O)CS2,-3%,6%
COc1ccc(NS(=O)(=O)c2cccc(NC(=O)Cc3n[nH]c(=O)c4ccccc34)c2)cc1,2%,134%[activator]
Cc1nn(-c2ccc(N3CCOCC3)nn2)c(C)c1CCC(=O)NCc1ccc(F)cc1,3%,-3%
O=C(COC(=O)c1ccc(Cl)cc1)c1ccc([N+](=O)[O-])cc1,-2%,1%
CN(C)c1cc2c(cc1NC(=O)c1cccs1)n(C)c(=O)c(=O)n2C,90%[activator],83%[activator]
CCOC(=O)c1ccc2ncc(C(=O)OCC)c(NCCCO)c2c1,6%,6%
Cn1nc(C(=O)OCc2nc(-c3ccccc3)no2)c2ccccc21,0%,10%
Cc1ccc(-c2cn3ccc(C)cc3n2)cc1,0%,-3%
COc1ccc(-c2noc(CN(C)S(=O)(=O)c3ccc(OC)cc3)n2)cc1,-11%,-4%
Cc1nn(C)c(C)c1CNCc1ccc(N2CCOCC2)nc1,-4%,-9%
Nc1ccccc1C(=O)NCCc1c[nH]c2ccccc12,0%,13%
OC(O)C(Cl)(Cl)Cl,4%[11.5 µM],-5%
Cc1ccc(CN(C)C(=O)CSc2nc3ccccc3o2)c(C)c1,71%[activator],44%[activator]
CCN(CC)c1ccc(NC(=O)CN2C(=O)c3cccnc3Sc3ccccc32)c(C)c1,46%[activator],-6%
Cc1cccc(N(C)c2nc3ccc(C(=O)c4ccccc4)cc3n3c(C)nnc23)c1,-6%,-20%
N#Cc1ncn(Cc2coc(-c3ccc(Cl)cc3)n2)n1,11%,-27%
COC(=O)c1ccc(NC(=O)n2ncc3c(C)cccc32)cc1,24%,-4%
CCOc1ccc(-c2nc(CN3CCN(C(=O)NCCc4ccccc4)CC3)c(C)o2)cc1,6%,-25%
CCN1CCCC1CNC(=O)C(=O)Nc1cccc2[nH]ccc12 (centres undefined),20%,-8%
CC1=CC(C)(C)N(S(=O)(=O)c2ccc(Cl)cc2)c2cc(C)ccc21,?,-36%
CC(C)(C)NC(=O)Cc1csc(-c2cccs2)n1,0%,0%
O=C(NCc1ccccn1)c1cccc(Cl)c1,11%,22%
COc1ccc(Oc2nc(-c3cccnc3)nc3ccccc23)cc1,-14%,-14%
CCOc1ccc(C(CC(=O)O)N2Cc3ccccc3C2=O)cc1OC (centres undefined),-12%,-7%
COc1ccc2c(c1)cc(C(=O)Nc1ccc(F)cc1)n2C,20%,-6%
O=C(O)c1cccc(COc2ccc(Cl)cc2Cl)c1,?,9%
C=C(C)Cn1c(SCC(=O)c2ccccc2)nc2c1c(=O)[nH]c(=O)n2C,16%,7%
COc1ccc(-c2nc(Cn3c(SCc4ccc(F)cc4)nc4cccnc43)c(C)o2)cc1,-15%,-10%

# The list is partial. The share of hits here may be higher or lower than overall.
